NS1 inh = inhibitors of influenza NS1 protein function; Potency, µM (top dose mostly 46.1 µM), for the others: at the top dose activity, positive = more growth; AID 2326; 0.4% of 270,000 active; S. cerevisiae slowed by influenza A NS1, growth recovery by OD600; note: actives are rising curves; nearly all actives have a fitted effect of over 50% in size
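In this qHTS, NS1 from influenza A is expressed in budding yeast, where it slows growth. Cells are switched from glucose to 2% galactose medium (pH 6.0, -URA), treated with compound, and growth recovery is read at OD600.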
Cruzain Triton = cruzain (T. cruzi) inhibition with detergent | purified cruzain, Z-FR-AMC fluorescence, 0.01% Triton | Potency, µM, without a hit: max response, negative = inhibition, usual class: inhibitors | AID 1478 | 0.43% of 200,000 active | P25779; active = well fitted curve in the direction sought with a large enough effect; inconclusive = small, poorly fitted or top-dose-only effect, or another doubt; inactive = no such curve, though single readings can be large; an effect the other way counts as inactive or inconclusive;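 note: plate controls were neutral wells for no effect and buffer without enzyme for full effect; nearly all actives have a fitted effect of over 40% in size; top concentration of the series not given in the record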
Target sequence (P25779 123-467 limits assumed): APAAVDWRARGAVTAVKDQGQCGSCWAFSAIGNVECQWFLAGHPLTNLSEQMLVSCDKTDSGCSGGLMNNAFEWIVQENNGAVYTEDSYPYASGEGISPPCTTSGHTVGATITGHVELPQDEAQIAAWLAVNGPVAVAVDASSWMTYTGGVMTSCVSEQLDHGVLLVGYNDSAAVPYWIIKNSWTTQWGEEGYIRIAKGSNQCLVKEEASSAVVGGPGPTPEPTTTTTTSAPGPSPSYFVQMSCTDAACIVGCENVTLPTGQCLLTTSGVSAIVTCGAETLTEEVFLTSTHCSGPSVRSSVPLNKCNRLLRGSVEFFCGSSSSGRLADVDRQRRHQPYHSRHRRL
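15 min RT preincubation of 1.5 nM cruzain with compound, then 2 uM Z-FR-AMC added; kinetic AMC fluorescence, 60 s delta. Triton X-100 0.01%, pH 5.5.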
Marburg entry inh = Marburg virus entry inhibition; Marburg virus pseudotyped entry inhibition, cell reporter; control for the full effect not named in the record; about a third of the inactives were read at about 46 µM; 1.8% of 300,000 active; Potency, µM (series often up to 37.8 µM), for inactives: top-dose activity change, negative = inhibition, most hits filed as inhibitors; active = well fitted inhibition curve with a large enough effect; inconclusive = small, poorly fitted or top-dose-only effect, or effect the other way; inactive = flat fitted curve, though single readings scatter; tested in HEK293 cells; about a fifth of its hits are not listed in these tables; note: % is set by controls: 0 for no effect and ±100 for the full control effect; luciferase read-out
SARS PLpro yeast = inhibitors of SARS-CoV papain-like protease in yeast; 0.19% of 330,000 active; AID 485353; S. cerevisiae expressing SARS-CoV PLpro, growth rescue; control for the full effect not named in the record; Potency, µM (highest dose often 32.9 µM), inactives show at the highest dose activity, positive = growth rescue; note: 0% is about no effect; nearly all actives have a fitted effect of over 55% in size; growth read by luminescence after 48 h
Cruzain inh noDet = inhibitors of Trypanosoma cruzi cruzain without detergent | purified cruzain, Z-FR-AMC fluorescence, no detergent | P25779 | 2.3% of 200,000 active | Potency, µM, for the others: max response, negative = inhibition, usual class: inhibitors; active = well fitted curve in the direction sought with a large enough effect; inconclusive = small, poorly fitted or top-dose-only effect, or another doubt; inactive = no such curve, though single readings can be large; an effect the other way counts as inactive or inconclusive;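 note: plate controls were enzyme without inhibitor for no effect and buffer without enzyme for full effect; nearly all actives have a fitted effect of over 40% in size; top concentration of the series not given in the record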
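Detergent-free condition (0.00005% Triton X-100) in acetate buffer pH 5.5 with DTT. 1.5 nM enzyme and compound were pre-mixed 15 min, then 2 uM Z-FR-AMC substrate added; reaction progress from fluorescence change between first and third reads (60 s).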
RE007 growth inh = less growth of the S. pombe RE007 Vpr strain; S. pombe RE007 Vpr strain, BacTiter-Glo ATP luminescence, 24 h; control for the full effect not named in the record; Potency, µM (doses to about 92.2 µM), inactives show at the top dose activity change, negative = less growth; 0.21% of 360,000 active; active = well fitted falling curve with a large enough effect; inconclusive = small, poorly fitted or top-dose-only effect; inactive = no such curve, though single readings can be large or run the other way;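 note: % is set by controls: 0 for no effect and ±100 for the full control effect; nearly all actives have a fitted effect of over 50% in size; the assay follows cell death caused by Vpr and the record does not say whether a fall means rescue or toxicity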
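Fission yeast strain RE007, carrying one chromosomally integrated HIV-1 vpr copy, was seeded at OD 0.01 in PMG+AL medium with 23 nL pinned compound. After 24 h at 30 °C and 99% humidity, viability was read by BacTiter-Glo luminescence.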
2A StopGo = lowers the luciferase signal of an FMDV 2A StopGo reporter | AID 1159524 | human cells with a luciferase reporter of 2A StopGo recoding; control for the full effect not named in the record | Potency, µM (titrated, usually from 57.9 µM), inactives show at the highest dose signal change, negative = less light | 1.2% of 410,000 active; active = well fitted falling curve with a large enough effect; inconclusive = small, poorly fitted or top-dose-only effect; inactive = no such curve, though single readings can be large or run the other way; tested in HEK293T cells; note: % is set by controls: 0 for no effect and ±100 for the full control effect; nearly all actives have a fitted effect of over 45% in size; luciferase light after 4 h
LASV entry inh = blocks Lassa virus binding to or entry into cells; 1.2% of 300,000 active; Lassa virus pseudotype entry inhibition, cell reporter; control for the full effect not named in the record; AID 540256; Potency, µM (titrated, usually from 37.9 µM), inactives show top-dose activity change, negative = inhibition, most hits filed as inhibitors; active means well fitted inhibition curve with a large enough effect; inconclusive means small, poorly fitted or top-dose-only effect, or effect the other way; inactive means flat fitted curve, though single readings scatter; tested in HEK293 cells; note: % is set by controls: 0 for no effect and ±100 for the full control effect; nearly all actives have a fitted effect of over 50% in size; luciferase read-out
The depositor's hits bear a star; ? = inconclusive; nt = not tested or not shown; & = joins results of further samples; [ ] = another dose, or the depositor's remark. Unless noted, calls come from the whole dose curve; as a rule, active means well fitted rising curve with a large enough effect; inconclusive means small, poorly fitted or top-dose-only effect; inactive means no such curve, though single readings can be large or run the other way. Potency is the fitted concentration of half-maximal effect.

Every second line gives: Cruzain Triton	SARS PLpro yeast	2A StopGo	Cruzain inh noDet	LASV entry inh	NS1 inh	Marburg entry inh	RE007 growth inh
Cc1ccc(NC(=O)Cn2c(C)csc2=O)cc1
 : nt	-4%	23%	nt	17%	nt	19%[46.1 µM]	-12%
Cn1cnc2c(cnn2-c2ccccc2)c1=O
 : nt	1%	-15%	nt	25%[46.1 µM]	-1%	-7%[46.1 µM]	37%
CN1CCN(C(=S)Nc2ccccc2Cl)CC1
 : 6.6%	-6%	-5%	-2%	2%	-8%	?	-14%
CN(C)C(=O)CCc1ccc2c3c([nH]c2c1)[C@]1(C)[C@@H](C(=O)N2CCCCC2)C[C@H](CC(=O)NCC24CC5CC(CC(C5)C2)C4)C(=O)N1CC3
 : nt	-20%	-26%	nt	nt	nt	0%	8%
CCOc1ccc(S(=O)(=O)NC(C)C(=O)NCc2ccc3c(c2)OCO3)cc1 (stereo not drawn)
 : nt	0%	10%	nt	-1%	5%	-1%	8%
O=C(O)c1ccc(NS(=O)(=O)c2ccc3c(c2)C(=O)c2cc(S(=O)(=O)Nc4ccc(C(=O)O)cc4)ccc2-3)cc1
 : nt	1%	3%	nt	0%[46.1 µM]	nt	12%[46.1 µM]	-7%
O=C(NC(=Nc1ccccc1)N1CCOCC1)Nc1ccccc1
 : 3.6%	1%	nt	1%	3%	-4%	-1%	14%
COc1ccc(OC)c(-n2c(-c3cccc(S(=O)(=O)N(C)C)c3)n[nH]c2=S)c1
 : nt	0%	-10%	nt	4%	nt	9%	7%
CCOc1ccc(CNC(=O)CCCC(=O)n2ncc3cc(C)ccc32)cc1
 : nt	-11%	18%	nt	nt	2%	nt	0%
CN(/N=C/c1ccc(-c2ccc([N+](=O)[O-])cc2)o1)c1ccccc1
 : nt	1%	12%	nt	1%[46.1 µM]	23%	-4%[46.1 µM]	14%
CCOC(=O)C(CC)Sc1nnc(COc2ccc(C)cc2)n1-c1ccccc1 (stereo not drawn)
 : -10%	-22%	0%	?	-10%	-5%	?	19%
O=C(O)c1ccccc1C(=O)Nc1nccs1
 : 2.2%	4%	15%	3%	-2%	20%	1%	2%
O=C(NNS(=O)(=O)c1ccc(F)cc1F)C1Cc2c(ccc3ccccc23)O1 (stereo not drawn)
 : -3.4%	0%	?	7%	?	-1%	-25%	1%
CCC(c1nnnn1Cc1ccccc1)N(Cc1cc2cc(OC)ccc2[nH]c1=O)CC1CCCO1 (stereo not drawn)
 : 2.4%	4%	-16%	-2%	?	2%	-15%&-15%	1%
COC(=O)c1ccc(NC(=O)C2C3C=CC(C3)C2C(=O)O)cc1 (stereo not drawn)
 : nt	-3%	-2%	nt	nt	1%	nt	-4%
CCCCc1c(O)c2cccc3c2n(c1=O)CCC3
 : nt	nt	11%	nt	1%	nt	-1%[46.1 µM]	-14%
COC(=O)c1cccc(NS(=O)(=O)c2ccc(OC)cc2)c1C
 : -2.0%	7%	-16%	-9%	-19%	-11%	-25%	4%
COc1ccc2c(c1OC)C(=O)OC2Nc1nc(-c2cc3ccccc3oc2=O)cs1 (stereo not drawn)
 : -18%	-67%	-47%	15%	?	-11%	?	?
COc1cccc(/C=N/NC(=O)Cn2ccnc2C)c1
 : -4.2%	?	-12%	4%	-1%	-2%	-13%	-7%
O=C(Nc1nccs1)NC(C(F)(F)F)C(F)(F)F
 : 1.3%	-5%	-11%	7%	1%	-5%	7%	-2%
COc1ccc(CCNS(=O)(=O)c2cc3c4c(c2)CCN4C(=O)CC3)cc1OC
 : nt	2%	4%	nt	0%	nt	2%	20%
COC(=O)c1ccccc1NC(=O)CSc1nc(NC(=O)c2ccccc2)c2c(C)c(C)oc2n1
 : -4.3%	?	?	?	16%	-13%	14%&14%[46.1 µM]	9%
Cc1c(CCC(=O)NCCC(=O)O)c(=O)oc2c(C)c3oc4c(c3cc12)CCCC4
 : nt	0%	-7%	nt	nt	17%	nt	3%
Cc1cc(NC(=O)CCC(=O)N(CC2CCCO2)C(C(=O)NC2CCCC2)c2ccccc2C)no1 (stereo not drawn)
 : nt	nt	-5%	nt	21%	-1%	-10%[46.1 µM]	8%
Cc1ccccc1-n1c(C)nc2ccccc2c1=O
 : nt	0%	-12%	nt	-8%[46.1 µM]	6%	12%[46.1 µM]	21%
CCn1c2ccccc2c2cc(NC(=O)COc3ccccc3OC)ccc21
 : -1.3%	1%	0%	7%	?	19%	?	2%
O=C(COc1ccc(Oc2ccccc2)cc1)NC1CCS(=O)(=O)C1 (stereo not drawn)
 : nt	11%	?	nt	-22%[46.1 µM]	nt	?	-1%
CN(C)CCCNC(=O)C[C@H]1C[C@H](C(=O)N2CCCCC2)[C@@]2(C)c3[nH]c4cc(-c5ccco5)ccc4c3CCN2C1=O
 : nt	20%	-10%	nt	nt	nt	-5%	7%
CCn1c(NCCO)nc2c(c1=O)C(C)(CC)Cc1ccccc1-2 (stereo not drawn)
 : nt	0%	-8%	nt	3%	0%	-17%	0%
Cc1ccc(NC(=O)C2CCN(S(=O)(=O)c3cnc[nH]3)CC2)cc1C
 : -0.8%	19%	-6%	-2%	-3%	-4%	1%	5%
COC(=O)c1ccc(C(=O)OC)c(NC(=O)C2CC(=O)N(C3CCCC3)C2)c1 (stereo not drawn)
 : nt	nt	?	nt	-30%	nt	6%[46.1 µM]	-11%
Clc1ccc2nnc(Cl)n2n1
 : nt	4%	0%	nt	?	8%	10%[46.1 µM]	6%
Cc1ccc(-n2nc3c(=O)n(CCCC(=O)NCc4ccc(Cl)cc4)nc(C)c3c2C)cc1
 : nt	3%	-21%	nt	nt	-1%	nt	-10%
CCOc1cc(OCC)c(C(C)=O)cc1OCC
 : 2.9%	3%	-19%	-2%	nt	nt	-2%	-4%
COc1cc(/C=C2/C(=O)N(c3ccc(C)c(C)c3)N=C2C)cc([N+](=O)[O-])c1O
 : nt	5%	-5%	nt	nt	6%	nt	-13%
Cn1c(CCC(=O)OCC(=O)Nc2ccc(Oc3ccccc3)cc2)nc(=O)c2ccccc21
 : -0.6%	30%	7%	?	7%	-16%	1%	-9%
Cn1ncc(Br)c1C(=O)Nc1c(F)c(F)cc(F)c1F
 : -0.8%	4%	-19%	-2%	?	7%	13%	30%
CCCOc1ccccc1C(=O)N(Cc1cccc(Br)c1)C1CCS(=O)(=O)C1 (stereo not drawn)
 : nt	1%	0.71µM*	nt	?	-5%	?	13%
COc1ccc(-c2sc3ccc(N4CCOCC4)cc3c2-c2ccc(OC)c(F)c2)cc1
 : nt	-1%	-23%	nt	nt	8%	nt	3%
COc1ccc(CC(=O)Nc2nccs2)cc1S(=O)(=O)N1CCOCC1
 : nt	-2%	-16%	nt	0%	nt	0%	-26%

Structures above that have bromine, in the order listed:
Every second line gives: Cruzain Triton	SARS PLpro yeast	2A StopGo	Cruzain inh noDet	LASV entry inh	NS1 inh	Marburg entry inh	RE007 growth inh
Cn1ncc(Br)c1C(=O)Nc1c(F)c(F)cc(F)c1F
 : -0.8%	4%	-19%	-2%	?	7%	13%	30%
CCCOc1ccccc1C(=O)N(Cc1cccc(Br)c1)C1CCS(=O)(=O)C1 (stereo not drawn)
 : nt	1%	0.71µM*	nt	?	-5%	?	13%

Next part:
Every second line gives: Cruzain Triton	SARS PLpro yeast	2A StopGo	Cruzain inh noDet	LASV entry inh	NS1 inh	Marburg entry inh	RE007 growth inh
CCOC(=O)C1CCN(C(=O)COC(=O)c2ccccc2OCC)CC1
 : nt	0%	-3%	nt	17%	nt	11%	-3%
COCc1nnc(NC(=O)c2ccc(OC)cc2OC)s1
 : nt	0%	8%	nt	?	-4%	?	4%
Cc1ccc(NC(=O)COc2ccc(/C(N)=N/O)cc2)cc1C
 : 0.1%	?	6%	6%	7%	-8%	27%	-6%
CC(=O)Nc1ccc(OC(=O)CC2SC(=O)NC2=O)cc1 (stereo not drawn)
 : 2.0%	2%	6%	0%	3%	1%	17%	-3%
O=S(=O)(c1ccc(Cl)nc1)N1CCN(c2ncccn2)CC1
 : nt	0%	-12%	nt	nt	0%	nt	-6%
CCOC(=O)CCc1c(C)nc(SCc2ccc(C(=O)O)cc2)c(C#N)c1C
 : nt	-9%	0%	nt	nt	10%	nt	-1%
COc1ccc(NC(=O)CNC(=O)Cn2ccc3ccccc3c2=O)cc1OC
 : 0.5%	nt	-17%	0%	9%[46.1 µM]	nt	?	nt
CCCc1cc(=O)oc2c3c(cc(OCC(=O)N4CCC[C@H]4C(=O)O)c12)OC(C)(C)CC3
 : nt	3%	-14%	nt	nt	29%	nt	5%
CSC(=NC#N)N1CCN(C(c2ccccc2)c2ccccc2)CC1
 : nt	-5%	?	nt	nt	-39%	nt	10%
COc1ccccc1NC(=O)COC(=O)CCS(=O)(=O)c1ccc(C)cc1
 : nt	-1%	2%	nt	8%	5%	0%	7%
Cc1nn(C(=O)c2ccc([N+](=O)[O-])cc2)c(C)c1Br
 : nt	-1%	-15%	nt	nt	1%	nt	-15%
CCC1CN(S(=O)(=O)c2cc(-c3cc(C)no3)ccc2OC)c2cc(C)ccc2O1 (stereo not drawn)
 : -2.4%	-2%	10%&31%	-21%	-17%[46.1 µM]	7%	nt	1%
CCCC/C(O)=C1\C(=O)CC(C)(C)CC1=Nc1ccc(OC)cc1
 : -5.6%	-5%	?	-5%	?	-64%	?	6%
CNC(=O)c1cc2cc(OC)ccc2oc1=O
 : -5.4%	6%	44%[activator]	?	13%	0%	16%	9%

From PubChem
